# High-throughput results from PubChem.
# PD-1 reverse act: activators reversing PD-1 mediated T-cell inhibition; activation, % (no concentration beside the values); AID 2316; primary human CD4 T cells, PD-L1 beads, CellTiter-Glo 96 h; 29,000 tested, under 10 active;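 active = replicate mean of 50% or more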;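 also: 0% = median vehicle wells and 100% = positive control; 100 nL library stock added to about 50 µL; numbers are from one replicate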
# Hedgehog inh: blocks Sonic Hedgehog signaling; 22,000 tested, 2.1% active; Shh-LIGHT2 Gli-luciferase reporter, 30 h; inhibition, % (no concentration beside the values); AID 2313;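 active = replicate mean of 65% or more; inconclusive = mean lower but half the replicates past it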;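 also: pathway switched on by Shh-conditioned medium diluted 1 in 25 in low serum; 100 nL library stock added to about 40 µL; 0% = median of neutral wells and 100% = positive control level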
# MITF inh: inhibitors of MITF | TRPM1 promoter luciferase, luminescence, 24 h | AID 2240 | inhibition, % (concentration not given with the values) | 37,000 tested, 0.28% active;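 active = most replicates at 85% or more, or half of them and the mean; inconclusive = half reach 85% but not the mean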;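 also: human melanocyte line stably carrying TRPM1 promoter luciferase reporter; 0% = vehicle wells and 100% = a positive control; the first replicate is given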
# YB-1 expression: YB-1 expression inhibition; U2OS, qRT-PCR YB-1 vs CDIP delta delta Cp, 16 h; active compounds read high; zero = DMSO, each unit about twofold; delta delta Cp (YB-1 minus CDIP) (no concentration beside the values); 30,000 tested, 0.37% active; AID 434959;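 active = delta delta Cp rounded down to an integer at or above 3, about 3 SD of DMSO wells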;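 also: higher means less YB-1 transcript or more CDIP transcript relative to DMSO; stock transfer was 100 nL into about 100 µL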
# Numbers without * were called inactive; ? = inconclusive; . = not tested or not shown. These rows are one share of the data; count on the stated rates, not on these rows.
# Start of the listing, in advance (4 entries):
SMILES,PD-1 reverse act,Hedgehog inh,MITF inh,YB-1 expression
Cc1noc(C)c1NC(=O)N(C)C[C@@H]1Oc2c(NC(=O)NC3CCCCC3)cccc2C(=O)N([C@@H](C)CO)C[C@H]1C,.,-39,-4,-0.42
O=C(CSc1nnc(-c2ccccc2Cl)n1-c1ccccc1)Nc1ccccc1Cl,0.1,.,24,.
C[C@H]1CN([C@@H](C)CO)C(=O)c2cc(NC(=O)CCCN(C)C)ccc2O[C@@H]1CN(C)S(=O)(=O)c1cn(C)cn1,0.6,-4,1,-0.28
Cc1ccc(OC(=O)OCSc2nn[nH]n2)cc1,-10,?,21,-0.4

# Main list, repeating the preview:
SMILES,PD-1 reverse act,Hedgehog inh,MITF inh,YB-1 expression
Cc1noc(C)c1NC(=O)N(C)C[C@@H]1Oc2c(NC(=O)NC3CCCCC3)cccc2C(=O)N([C@@H](C)CO)C[C@H]1C,.,-39,-4,-0.42
O=C(CSc1nnc(-c2ccccc2Cl)n1-c1ccccc1)Nc1ccccc1Cl,0.1,.,24,.
C[C@H]1CN([C@@H](C)CO)C(=O)c2cc(NC(=O)CCCN(C)C)ccc2O[C@@H]1CN(C)S(=O)(=O)c1cn(C)cn1,0.6,-4,1,-0.28
Cc1ccc(OC(=O)OCSc2nn[nH]n2)cc1,-10,?,21,-0.4
COc1ccc(S(=O)(=O)N(C)C[C@H]2Oc3c(NC(=O)c4cc(C)nn4C)cccc3C(=O)N([C@@H](C)CO)C[C@H]2C)cc1,0.9,-7,-13,-0.17
C[C@H]1CN([C@@H](C)CO)C(=O)c2cccc(NC(=O)C3CCCCC3)c2O[C@H]1CN(C)C(=O)Nc1cccc2ccccc12,.,-4,0,-0.21
CCn1c2ccccc2c2cc(NC(=O)Cc3ccccc3[N+](=O)[O-])ccc21,-0.9,.,-20,.
Cc1nc(N)[nH]c(=O)c1CCC(C)C,1.6,.,-5,0.053
COc1ccc(S(=O)(=O)N(C)C[C@H]2Oc3ccc(NC(=O)CCN4CCOCC4)cc3C(=O)N([C@H](C)CO)C[C@H]2C)cc1,1.4,-12,1,0.031
C[C@H](CO)N1C[C@H](C)[C@@H](CN(C)S(=O)(=O)c2ccc(Cl)cc2)Oc2ccc(NC(=O)NC3CCCCC3)cc2C1=O,-0.6,23,1,-0.37
C[C@@H]1CN([C@@H](C)CO)C(=O)c2cccc(NC(=O)Nc3ccc(C(F)(F)F)cc3)c2O[C@@H]1CN(C)C,0.1,-36,-3,-0.21
C[C@@H]1CN([C@H](C)CO)C(=O)c2cc(NC(=O)c3ccncc3)ccc2O[C@H]1CN(C)Cc1ccc(Oc2ccccc2)cc1,-2.7,73*,-3,0.15
C[C@H](CO)N1C[C@H](C)[C@H](CN(C)S(=O)(=O)c2cccs2)Oc2ccc(NS(C)(=O)=O)cc2C1=O,0.1,-6,1,0.2
COc1cc(O)c2c(=O)c(OC)c(-c3cc(O)c(OC)c(OC)c3)oc2c1,-1.1,-14,-8,0.71
C[C@@H]1CCCCO[C@H](CN(C)C(=O)Nc2ccc3c(c2)OCO3)[C@@H](C)CN([C@H](C)CO)C(=O)c2cc(NC(=O)NC3CCCCC3)ccc2O1,.,-11,-14,-0.11
O=c1c(-c2ccc(O)cc2)coc2cc(O)ccc12,.,-107,-17,0.068
C[C@H]1CN([C@@H](C)CO)C(=O)c2cccc(NS(C)(=O)=O)c2O[C@H]1CN(C)S(C)(=O)=O,2.7,-11,-10,-0.27
C[C@H](CO)N1C[C@H](C)[C@@H](CN(C)C)Oc2ccc(NC(=O)Cc3ccccc3)cc2C1=O,.,-12,1,-0.092
CNC(=O)Nc1ccc(C(C)(C)C)cc1Br,0.5,-32,-32,0.022
C[C@@H]1CN([C@@H](C)CO)C(=O)c2cccc(NS(=O)(=O)c3ccc(Cl)cc3)c2O[C@@H]1CN(C)C(=O)Nc1cccc2ccccc12,3.5,37,5,-0.64
CS(=O)(=O)N(CC(=O)Nc1ccccc1Br)c1ccc(Oc2ccccc2)cc1,-1.0,.,-12,.
CC(=O)OCC(=O)[C@H]1CCC2C3CCC4=CC(=O)CC[C@]4(C)C3CC[C@@]21C (stereo partly specified),-1.9,18,7,-0.44
C[C@H](CO)N1C[C@H](C)[C@@H](CN(C)S(=O)(=O)c2ccc(F)cc2)Oc2c(NC(=O)c3ccc(-c4nccs4)cc3)cccc2C1=O,0.3,-7,1,-0.051
Cc1noc(C)c1S(=O)(=O)Nc1ccc2c(c1)CC(=O)N([C@H](C)CO)C[C@H](C)[C@H](CN(C)Cc1ccc(C(=O)Nc3ccccc3N)cc1)O2,-5.3,.,42,-0.42

# Sorted by number of heavy atoms (falling): part of the list above.
SMILES,PD-1 reverse act,Hedgehog inh,MITF inh,YB-1 expression
Cc1noc(C)c1S(=O)(=O)Nc1ccc2c(c1)CC(=O)N([C@H](C)CO)C[C@H](C)[C@H](CN(C)Cc1ccc(C(=O)Nc3ccccc3N)cc1)O2,-5.3,.,42,-0.42
C[C@H](CO)N1C[C@H](C)[C@H](CN(C)S(=O)(=O)c2cccs2)Oc2ccc(NS(C)(=O)=O)cc2C1=O,0.1,-6,1,0.2
O=c1c(-c2ccc(O)cc2)coc2cc(O)ccc12,.,-107,-17,0.068

# (next part)
SMILES,PD-1 reverse act,Hedgehog inh,MITF inh,YB-1 expression
C[C@H]1CN([C@@H](C)CO)C(=O)Cc2cc(NS(=O)(=O)c3ccccc3)ccc2O[C@@H]1CN(C)Cc1ccc(-c2ccccc2)cc1,0.8,11,11,0.02
Cc1cc(C)nc(NS(=O)(=O)c2ccc(Nc3nc(-c4ccc(O)cc4)cs3)cc2)n1,-0.8,.,13,.
C=CCN1C(=O)NC2(CCCCC2)C1=O,2.0,-26,-1,-0.012
Cc1noc(C)c1S(=O)(=O)N(C)C[C@H]1Oc2ccc(NC(=O)Cc3ccccc3)cc2CC(=O)N([C@@H](C)CO)C[C@@H]1C,-0.1,-32,-3,0.28
C[C@@H]1CC[C@@]23CCC4(C)[C@@](C=CC5[C@@]6(C)CC[C@H](O)C(C)(C)C6CC[C@]54C)(OC2=O)C3[C@H]1C (stereo partly specified),.,28,-12,-0.00082
CC(C)NC(=O)Nc1ccc2c(c1)CC(=O)N([C@@H](C)CO)C[C@@H](C)[C@@H](CN(C)C(=O)NC1CCCCC1)O2,-0.5,-11,-4,0.018
C[C@@H]1CN([C@H](C)CO)C(=O)c2cc(NC(=O)Nc3ccc4c(c3)OCO4)ccc2O[C@H]1CN(C)CC1CCCCC1,2.4,-19,-5,0.012
COc1ccc(NC(=O)N(C)C[C@H]2Oc3c(cccc3N(C)C)C(=O)N([C@@H](C)CO)C[C@@H]2C)cc1,.,-1,1,-0.14
C[C@@H]1CN([C@H](C)CO)C(=O)c2cc(NS(=O)(=O)c3cccs3)ccc2O[C@H]1CN(C)C(=O)Nc1ccc2c(c1)OCO2,-0.6,.,6,0.38
C[C@@H]1CN([C@H](C)CO)C(=O)c2cccc(NS(=O)(=O)c3cn(C)cn3)c2O[C@@H]1CN(C)S(=O)(=O)c1ccccc1,1.3,-5,-2,-0.49
O=C(COc1ccccc1[N+](=O)[O-])Nc1ccc2oc(-c3ccccc3F)nc2c1,2.6,.,-29,.
C[C@@H]1CN([C@H](C)CO)C(=O)c2cc(NC(=O)Cc3cn(C)c4ccccc34)ccc2O[C@@H]1CN(C)CC1CC1,-0.2,-7,2,-0.45
Cc1noc(C)c1S(=O)(=O)Nc1ccc2c(c1)C(=O)N([C@H](C)CO)C[C@H](C)[C@@H](CN(C)C(=O)NC1CCCCC1)O2,.,-104,7,-0.12
CC(NS(=O)(=O)c1ccc(F)cc1)C(=O)Nc1ccc(C(N)=O)cc1 (stereo unspecified),1.3,.,-2,.
Cc1cc(C(=O)Nc2cccc3c2O[C@H](CN(C)C(=O)NC2CCCCC2)[C@H](C)CN([C@H](C)CO)C3=O)n(C)n1,0.2,1,-10,0.21
C[C@H]1CN([C@@H](C)CO)C(=O)c2cccc(NS(=O)(=O)c3cn(C)cn3)c2O[C@@H]1CN(C)C(=O)Nc1ccc2c(c1)OCO2,.,-16,6,-0.26
Cc1ccccc1-c1nnc(-c2cc(C(C)(C)C)nn2Cc2ccc(F)cc2)o1,1.4,-15,-7,-0.18
O=C(COc1ccc(Br)cc1)Nc1cccc(-c2nnc(-c3ccccc3)o2)c1,0.5,.,-45,.
CCOC(=O)c1c(CN2CCCCC2)n(-c2ccccc2)c2ccc(OC(C)=O)cc12,-4.6,46,-16,-0.22
C[C@@H]1CCCCO[C@H](CN(C)S(=O)(=O)c2ccccc2)[C@@H](C)CN([C@H](C)CO)C(=O)c2cc(NC(=O)c3ccncc3)ccc2O1,-2.1,-23,-8,0.0017
Cc1noc(C)c1S(=O)(=O)N(C)C[C@@H]1Oc2ccc(NC(=O)CCCN(C)C)cc2C(=O)N([C@@H](C)CO)C[C@@H]1C,0.4,-16,5,-0.24
COc1ccc(N2C(=O)CC(c3cn(Cc4ccccc4)c4ccccc34)C2=O)cc1 (stereo unspecified),0.1,39,40,0.15
C[C@H]1CN([C@@H](C)CO)C(=O)c2cccc(NS(=O)(=O)c3cccs3)c2O[C@@H]1CN(C)S(=O)(=O)c1ccc(F)cc1,.,-1,-13,-0.17
Cc1cc(C(=O)Nc2cccc3c2O[C@@H](CN(C)CC2CC2)[C@H](C)CN([C@@H](C)CO)C3=O)n(C)n1,3.7,10,-1,-0.53
C[C@H](CO)N1C[C@H](C)[C@H](CN(C)Cc2ccc(C(=O)O)cc2)Oc2c(NS(=O)(=O)c3cn(C)cn3)cccc2C1=O,2.7,-4,5,0.49
C[C@H]1CN([C@@H](C)CO)C(=O)c2cccc(NC(=O)C3CCCCC3)c2O[C@@H]1CN(C)CC1CC1,.,15,5,-0.78
COc1ccc(NC(=O)Nc2cccc3c2O[C@H](CN(C)Cc2ccc(Oc4ccccc4)cc2)[C@H](C)CN([C@@H](C)CO)C3=O)cc1,-3.8,36,2,0.13
Cc1ccc(NC(=O)CSc2nnc(-c3ccncc3)n2C)c(Br)c1,1.0,.,-12,.
C[C@@H]1CN([C@H](C)CO)C(=O)c2cc(NS(=O)(=O)c3cn(C)cn3)ccc2O[C@@H]1CN(C)C(=O)NC1CCCCC1,0.8,-5,1,-0.29
CCC1(c2cccc(OC(=O)C3CCCCC3)c2)CCCCN(C)C1=O (stereo unspecified),0.0,-10,-8,0.18
Cc1[nH]c(=S)[nH]c(=O)c1Cc1ccc(C(=O)O)o1,2.9,.,-16,.
CNC[C@@H]1Oc2ccc(NC(=O)C3CCCCC3)cc2C(=O)N([C@@H](C)CO)C[C@H]1C,1.7,-19,4,0.43
Cc1ccc(S(=O)(=O)Nc2ccc3c(c2)C(=O)N([C@@H](C)CO)C[C@H](C)[C@@H](CN(C)C(=O)Nc2cccc4ccccc24)O3)cc1,.,.,-8,-0.21
CC(C)NC(=O)Nc1ccc2c(c1)C(=O)N([C@H](C)CO)C[C@H](C)[C@H](CN(C)Cc1ccc(Cl)c(Cl)c1)OCCCC[C@@H](C)O2,-6.5,29,55,-0.13
COc1ccc(S(=O)(=O)Nc2cccc3c2O[C@@H](CN(C)S(C)(=O)=O)[C@@H](C)CN([C@H](C)CO)C3=O)cc1,2.1,-8,0,-0.3
OC(COc1ccccc1F)Cn1cnc2ccccc21 (stereo unspecified),2.8,.,-64,.
C[C@@H]1CN([C@H](C)CO)C(=O)Cc2cc(NC(=O)Cc3ccccc3)ccc2O[C@H]1CN(C)S(=O)(=O)c1ccc(F)cc1,.,-6,-12,-0.34
C[C@H](CO)N1C[C@H](C)[C@H](CN(C)Cc2ccncc2)Oc2ccc(NC(=O)CCC(F)(F)F)cc2C1=O,0.6,-27,-8,-0.14
Cc1noc(C)c1NC(=O)Nc1ccc2c(c1)CC(=O)N([C@@H](C)CO)C[C@@H](C)[C@@H](CN(C)C(=O)Nc1ccc3c(c1)OCO3)O2,0.4,20,7,-0.39
C[C@H](CO)N1C[C@H](C)[C@H](CN(C)S(=O)(=O)c2ccc(F)cc2)Oc2ccc(NS(=O)(=O)c3cccs3)cc2CC1=O,.,.,-10,-0.2
CCOC(=O)C1=C(C)NC(=O)C1(NC(=O)c1cccnc1)C(F)(F)F (stereo unspecified),2.4,.,-12,.
C[C@H]1CN([C@@H](C)CO)C(=O)Cc2cc(NC(=O)Cc3ccccc3)ccc2O[C@H]1CN(C)S(=O)(=O)c1ccccc1,0.6,6,0,0.42
N/C(C[n+]1ccccc1)=N\O,0.2,.,-7,-0.45
C[C@H]1CN([C@@H](C)CO)C(=O)Cc2cc(NS(=O)(=O)c3cccs3)ccc2O[C@H]1CN(C)C(=O)Nc1ccc(F)cc1,1.2,-38,-6,-0.18
COc1ccc(C)cc1S(=O)(=O)N(C)CC(=O)N1CCN(C)CC1,2.2,.,-11,.
C[C@@H]1CN([C@H](C)CO)C(=O)Cc2cc(NC(=O)Nc3ccc4c(c3)OCO4)ccc2O[C@@H]1CN(C)Cc1ccc(C(=O)Nc2ccccc2N)cc1,-3.2,.,-11,0.1
CNC[C@H]1Oc2ccc(NC(=O)Nc3ccc4c(c3)OCO4)cc2C(=O)N([C@@H](C)CO)C[C@@H]1C,0.3,-5,1,-0.1
